Screening results: PubChem, several laboratories
HNF4A DNA FP: change in binding of human HNF4 alpha to DNA. P41235. HNF4a-FITC DNA binding, fluorescence polarization, 1 h. activity change, % at 10 µM. hit rate 0.3% among 360,000. AID 1224865; in the data active = activity change above about 30%, passing the limit was not always enough;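 also: controls were the assay level and a saturating level of protein; the project sought stronger binding though the title names inhibitors; some compounds called inactive have numbers as strong as hits; positive values seem to mean higher polarization but the record does not say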
Target sequence (P41235 whole entry, looked up): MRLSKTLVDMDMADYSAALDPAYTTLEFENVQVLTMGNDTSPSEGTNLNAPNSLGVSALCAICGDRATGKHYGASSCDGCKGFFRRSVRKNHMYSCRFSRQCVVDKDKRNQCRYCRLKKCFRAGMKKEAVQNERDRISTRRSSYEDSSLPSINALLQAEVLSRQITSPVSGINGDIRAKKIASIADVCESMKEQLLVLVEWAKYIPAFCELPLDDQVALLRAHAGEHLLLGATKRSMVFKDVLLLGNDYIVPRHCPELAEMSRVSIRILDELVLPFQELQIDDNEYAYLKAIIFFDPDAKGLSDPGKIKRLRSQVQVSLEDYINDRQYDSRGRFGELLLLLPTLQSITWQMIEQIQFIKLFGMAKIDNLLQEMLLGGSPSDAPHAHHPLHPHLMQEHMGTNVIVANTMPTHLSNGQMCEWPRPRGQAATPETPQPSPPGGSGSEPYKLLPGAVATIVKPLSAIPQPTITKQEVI
Ecoli growth: blocks Escherichia coli growth | OD600, 23 h; hits give low values | OD600 absorbance (no concentration beside the values) | hit rate 0.21% among 330,000 | AID 1053175;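 active = OD600 absorbance below the run mean of sample wells minus 3.6 SD, in any replicate, cut at about 0.56 in these data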;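 also: stock transfer was 300 nL into about 60 µL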
RanGTP-Impb inh: inhibitors of RanGTP-importin-beta interaction, primary screen, biochemical, FRET, CFP-Ran, YFP-importin-beta, homogeneous; hit rate 1.1% among 300,000; inhibition, % (test concentration not listed); cell-free CFP-Ran/YFP-importin-beta FRET ratio;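 active = most replicates above 15%; inconclusive = exactly half above 15%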;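 also: 0% = DMSO wells and 100% = Ran loaded with GDP instead of GTP; wells of about 40 µL received 100 nL stock; the first replicate is given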
UCH37 inh: human UCH37 deubiquitinating enzyme inhibition; purified proteasome/UCH37, Ub-AMC cleavage fluorescence; inhibition, % (test concentration not listed); Q9Y5K5; hit rate 0.33% among 330,000;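 active = mean of two replicates above 20%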;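 also: 0% = compound-free wells with enzyme and 100% = wells lacking proteasome; stock transfer was 100 nL into about 20 µL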
Target sequence (Q9Y5K5 whole entry, looked up): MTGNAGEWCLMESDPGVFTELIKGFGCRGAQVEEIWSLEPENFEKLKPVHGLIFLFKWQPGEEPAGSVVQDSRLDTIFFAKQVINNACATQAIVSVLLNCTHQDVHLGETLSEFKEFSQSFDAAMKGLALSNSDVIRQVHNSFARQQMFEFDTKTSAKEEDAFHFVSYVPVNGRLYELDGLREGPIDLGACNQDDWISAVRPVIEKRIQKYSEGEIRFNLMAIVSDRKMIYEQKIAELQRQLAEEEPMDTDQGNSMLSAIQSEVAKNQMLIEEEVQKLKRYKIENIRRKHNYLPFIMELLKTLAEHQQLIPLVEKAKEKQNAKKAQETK
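Signal – fluorescence, ex 355 nm, em 460 nm · System – Proteasome-bound UCH37 · Input – 0.15 nM proteasome as dispensed · Timing – 30 min preincubation with enzyme, 25 min cleavage at room temperature · Read-out basis – percent inhibition of cleavage signal versus uninhibited and no-proteasome wells · Medium – Tris-HCl pH 7.4 with ATP-MgCl2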
MLL AF4-AF9 inh: MLL-AF4/AF9 protein interaction inhibition | P42568 | AlphaScreen, biotin-AF4 peptide binding to FLAG-AF9 | inhibition, % at 10 µM | hit rate 0.47% among 350,000;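 active = every replicate reaching a set inhibition limit, whatever the replicate mean, cut at about 25% in these data; inconclusive = mean inhibition reaches that limit but some replicates miss it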;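 also: 0% = plate neutral control median and 100% = total signal loss; the record names both 10 and 1 µM as test concentration; the first replicate is given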
Vif TR-FRET: HIV-1 Vif–A3G interaction blockers – biochemical, TR-FRET, GST-Vif 1-94, biotin-A3G peptide, dose response retest, primary screen (AID 1117319) | inhibition, %; hits with a dose series show IC50 in µM | hit rate 0.57% among 260,000 | TR-FRET GST-Vif / biotin-A3G peptide binding; higher % means a stronger effect; test concentration not given here; strong numbers were not always called active;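 active = above the screen mean plus three standard deviations and confirmed in dose response; inconclusive = results disagree or hit not tested in dose response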;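 also: Vif residues 1-94 fused to GST binding biotinylated APOBEC3G peptide 110-148; 0% = full assay without inhibitor and 100% = GST in place of GST-Vif; retest series ran down from 100 µM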
FGF22 binding: FGF22 (human) thermal shift binding; Q9HCT0; calls only at 9.99 µM; AID 651658; hit rate 1.5% among 340,000; recombinant FGF22 thermal shift, SYPRO orange fluorescence; percent of sucrose octasulfate shift, DMSO zero;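 active = melting point raised past a set limit in the mean and every replicate; inconclusive = no clear call; three in four hits are not shown here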
Target sequence (Q9HCT0 whole entry, looked up): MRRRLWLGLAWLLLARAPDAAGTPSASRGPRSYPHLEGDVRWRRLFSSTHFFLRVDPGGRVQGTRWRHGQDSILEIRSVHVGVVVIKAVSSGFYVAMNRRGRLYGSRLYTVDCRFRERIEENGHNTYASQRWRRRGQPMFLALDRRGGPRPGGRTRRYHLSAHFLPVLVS
* = called active by the depositor; i = inactive; ? = inconclusive; . = no result given; & = joins results of further samples. This is a subset, so the mix of outcomes need not match the whole.

SMILES | HNF4A DNA FP | Ecoli growth | RanGTP-Impb inh | UCH37 inh | MLL AF4-AF9 inh | Vif TR-FRET | FGF22 binding
COC(=O)C(C)Oc1ccc2c(-c3cccc([N+](=O)[O-])c3)cc(=O)oc2c1 (stereo not drawn) | 1.8 | 0.737 | 2.5 | 3.2 | . | -6.5% | .
COCCNC(=O)c1onc(CSc2ccc(F)c(F)c2)c1C(=O)O | 1.3 | 0.698 | -0.3 | 0.3 | -7.2 | -0.4% | i
COC(=O)CN1C(=S)N(c2ccc(Cl)cc2)C(=O)C1CC(=O)Nc1ccccc1 (stereo not drawn) | -1.3 | 0.696 | -3.8 | 0.3 | 0.3 | 3.3% | i
NC(=O)C1(N2CCCCC2)CCN(C(=O)CSc2nc3ccccc3o2)CC1 | -4.1 | 0.741 | -0.7 | 1.8 | . | . | .
Fc1ccc(-c2cc(C(F)(F)F)nc(-n3cncn3)n2)cc1 | -1.5 | 0.72 | -0.6 | -0.5 | . | -4.0% | .
CC(=O)N(CCC(c1ccco1)C(C)C)Cc1ccc(OC(C)C)cc1 (stereo not drawn) | 1.3 | 0.658 | 5.9 | 1.9 | 3.0 | 0.9% | i
CCc1nnc(NC(=O)CSc2nccn2-c2cccc(C)c2C)s1 | -3.7 | 0.746 | -0.2 | 4.1 | -0.1 | -6.8% | i
COc1ccc2cc(C(=O)N3CCN(c4cccc(C)c4C)CC3)[nH]c2c1 | -0.1 | 0.666 | -2.3 | -2.0 | -1.0 | -16.4% | i
O=C(/C=C/c1ccccc1)Oc1coc(CSc2ncccn2)cc1=O | 0.6 | 0.704 | -0.2 | 6.2 | 1.0 | ? | i
CCOC(=O)N1CCN(c2c(-c3ccc(C)cc3)c(=O)c2=O)CC1 | -0.4 | 0.675 | -2.5 | 7.5 | . | 18.1% | .
COc1ccc(-c2cc(C(F)(F)F)n3nc(C(=O)NCc4ccco4)cc3n2)cc1OC | 0.0 | 0.663 | 8.0 | -33.3 | . | -8.9% | .
Cc1ccc2cc(C(c3nnnn3C3CCCC3)N(Cc3cccnc3)Cc3ccco3)c(=O)[nH]c2c1 (stereo not drawn) | -2.7 | 0.691 | 1.1 | 0.8 | . | 12.4%&-9.7% | .
Nc1cccc(N=[N+]([O-])c2cccc(N)c2)c1 | 5.6 | 0.662 | . | 3.0 | -0.2 | -5.0% | i
CCCCN(CC)C(=O)C1CCC(=O)N(c2ccc(OC)cc2)C1c1ccc(OC)c(OC)c1 (stereo not drawn) | -1.0 | 0.714 | . | 3.4 | . | . | .
Cc1cc(OCC(=O)N2CCN(c3ccccc3)CC2)c2c(C)c(C)c(=O)oc2c1 | -1.6 | 0.681 | -3.7 | -0.2 | -4.0 | 1.7% | i
CCC(=O)Nc1ccc2c(c1)C(=O)c1ccccc1C2=O | 2.3 | 0.655 | -4.3 | 3.9 | . | 20.9% | .
CCCNC(=O)c1cc(C2CCCCN2S(=O)(=O)c2cccc3cccnc23)on1 (stereo not drawn) | 6.1 | . | . | . | 2.8 | . | i
CCCn1c(Nc2ccccc2)nc2ccccc21 | 0.5 | 0.747 | 0.8 | 3.4 | . | 22.4% | .
COc1ccc(CN2CCN(C)CC2)cc1OCc1ccccc1 | 1.8 | 0.692 | 6.4 | 4.6 | -8.7 | 6.5% | i
Cc1ccc(C2(C)NC(=O)N(CC(=O)Nc3ccc4c(c3)OCO4)C2=O)cc1 (stereo not drawn) | -0.2 | 0.714 | 2.4 | -0.2 | . | 21.7% | .
O=C(c1cccc(NS(=O)(=O)c2ccc(F)c(F)c2)c1)N1CCN(C(c2ccccc2)c2ccccc2)CC1 | 1.3 | 0.686 | 1.7 | 7.5 | 1.7 | . | i
O=C(CC1SC(=O)N(c2ccccc2)C1=O)Nc1cccc2ccccc12 (stereo not drawn) | -0.1 | 0.676 | 1.9 | 6.7 | -13.8 | 14.9% | i
CCCCCNC(=O)Cc1cc(=O)[nH]c(=O)[nH]1 | 0.0 | 0.778 | 2.5 | 3.3 | -6.6 | -2.1% | i
Cc1nc(Cl)nc(N(C)c2ccccc2)c1[N+](=O)[O-] | 3.8 | . | 6.3 | . | 5.2 | . | i
CCOC(=O)N1CCN(S(=O)(=O)c2cc(Cl)c(OC)cc2Cl)CC1 | -0.3 | 0.749 | -4.1 | 1.9 | . | 3.1% | .
SMILES | HNF4A DNA FP | Ecoli growth | RanGTP-Impb inh | UCH37 inh | MLL AF4-AF9 inh | Vif TR-FRET | FGF22 binding
CC1CCCCC1NC(=O)Cn1ncc2ccccc21 (stereo not drawn) | 1.2 | 0.765 | 3.0 | 5.7 | -2.6 | -0.4% | i
CCOC(=O)C1CCN(C(=O)CSc2nccc(C)n2)CC1 | 0.0 | 0.719 | 1.6 | 0.3 | -1.7 | . | i
Cc1ccc2c(c1)CN1CN2Cc2cc(C)ccc21 | -0.3 | 0.721 | 6.3 | 4.0 | . | -2.0% | .
COc1ccc(-c2cc(C(=O)Nc3c(C)n(C)n(-c4ccccc4)c3=O)c3ccccc3n2)cc1OC | 3.1 | 0.634 | 2.6 | -3.5 | -1.3 | . | i
O=C(O)CCCn1cc(NC(=O)COc2ccc(F)cc2)cn1 | -2.4 | 0.695 | 2.5 | 2.0 | 0.2 | . | i
COC(=O)c1nn(C)c(=O)[nH]c1=O | 1.4 | 0.638 | . | -0.3 | -2.0 | -0.2% | i
Nc1ccc(SCc2cccnc2)cc1 | -3.9 | 0.66 | 1.1 | 1.4 | 5.2 | 4.2% | i
CCN(CC)c1ccc(NC(=O)C2CCC(CNc3c(N4CCCC4)c(=O)c3=O)CC2)c(C)c1 (stereo not drawn) | 2.2 | 0.687 | -3.7 | 2.6 | 5.7 | 3.3% | i
O=c1c(Cl)c(N/N=C/c2ccc(Br)cc2)cnn1-c1ccccc1 | 11.7 | . | -0.2 | . | . | 8.1% | .
CN(C)/C=C/C(=O)/C=C/c1ccc(Cl)cc1Cl | 2.9 | 0.66 | 5.5 | 12.7 | 1.4 | 0.4% | i
CCCCN(c1nc2ccccc2nc1Cl)S(=O)(=O)c1ccc(C)cc1 | 0.1 | 0.647 | 4.6 | -0.6 | 0.0 | 0.6% | i
Cc1nc2cc(-c3ccc(Cl)cc3)nn2c(NCCN(C)C)c1C | 3.9 | 0.623 | 0.4 | -20.2 | 7.9 | -0.1% | i
COc1ccc(Nc2nc(Cl)c(C=O)s2)cc1 | 87.9* | . | -1.7 | . | . | 0.1% | .
O=C(Nc1ccc(Cc2ccncc2)cc1)C1CC1 | 0.6 | 0.635 | ? | 2.1 | -35.3 | ? | i
CC(C)(C)c1cc2nc(NCc3cccc(Cl)c3)ccn2n1 | -1.6 | . | . | . | -0.7 | . | i
COC(=O)[C@]12CCCCC=C1N(Cc1ccco1)C(=O)[C@H](CC(=O)N1CCOCC1)C2 | -0.4 | . | . | . | -0.5 | . | i
Cc1ccc(NC(=O)CCNS(=O)(=O)c2cccs2)cc1F | -2.0 | 0.679 | 0.6 | 3.2 | -0.4 | . | i
CC1(C)CC(=O)C=C(Nc2ccc3c(c2)OCCO3)C1 | -1.7 | 0.676 | 25.8* | 4.2 | . | -2.2% | .
O=C(COc1ccccc1)OC(C(=O)c1ccccc1)c1ccccc1 (stereo not drawn) | 1.9 | 0.713 | 1.7 | 1.0 | -4.7 | -4.7% | i
CCCN(C(=O)c1cn(-c2ccccc2)nc1-c1ccc(OC)cc1)C1CCS(=O)(=O)C1 (stereo not drawn) | 5.1 | 0.691 | 7.0 | -0.1 | -12.2 | 5.2% | i
Cc1ccc(C)c(OCCC(=O)Nc2cc(S(=O)(=O)N3CCCCC3)ccc2C)c1 | 0.0 | 0.685 | . | 2.9 | 0.3 | -7.1% | i
CC(C)c1[nH]nc2c1C(c1ccc(OC(=O)c3ccco3)cc1)C(C#N)=C(N)O2 (stereo not drawn) | -5.2 | 0.703 | -0.9 | 2.9 | 4.4 | 7.0% | i
S=c1[nH]nc(Cc2noc3ccccc23)n1-c1ccccc1 | 2.2 | 0.704 | 5.3 | 1.5 | -4.8 | -2.5% | i
C=CCSc1nnc(NC(=O)Cc2ccc(OC)c(OC)c2)s1 | -0.7 | 0.699 | -0.1 | 2.2 | -0.5 | 8.0% | .
CCOC(=O)[C@]12CCC=C1N(Cc1ccco1)C(=O)[C@H](CC(=O)NCCC(C)C)C2 | 2.1 | . | . | . | -1.4 | . | i

Single entries from the entries so far:
For RanGTP-Impb inh, O=c1c(Cl)c(N/N=C/c2ccc(Br)cc2)cnn1-c1ccccc1 has the entry -0.2
For HNF4A DNA FP, CCOC(=O)[C@]12CCC=C1N(Cc1ccco1)C(=O)[C@H](CC(=O)NCCC(C)C)C2 has the entry 2.1

Going on with the list:
SMILES | HNF4A DNA FP | Ecoli growth | RanGTP-Impb inh | UCH37 inh | MLL AF4-AF9 inh | Vif TR-FRET | FGF22 binding
COC(=O)c1ccn(CSc2cc(Cl)ccc2Cl)n1 | -2.2 | 0.631 | . | 1.1 | -3.7 | -20.2% | i
CCN(C(=O)COC(=O)CSc1ccccc1)c1c(N)n(Cc2ccccc2)c(=O)[nH]c1=O | 1.8 | 0.704 | 0.4 | -1.0 | -1.1 | -1.8% | i
Cc1ccc(C)n1-c1nn(S(=O)(=O)c2ccccc2)c2cccc(F)c12 | 5.0 | 0.642 | 0.3 | 0.0 | 1.2 | 7.3% | i
Cc1ccc(S(=O)(=O)c2nc(-c3ccccc3Cl)oc2N(C)C)cc1 | 1.4 | 0.703 | 4.5 | -9.5 | 1.2 | -3.2% | i
O=C(N/N=C/c1cccc([N+](=O)[O-])c1)c1cc(-c2ccc3c4c(cccc24)CC3)n[nH]1 | -1.2 | . | -1.0 | . | -0.3 | 26.1% | i
CCCOc1ccc(N2C(=O)C/C(=C\c3ccccc3)C2=O)cc1 | 2.6 | 0.672 | -1.8 | -9.0 | -0.5 | 25.6% | i
O=C(COC(=O)C1CCC1)NCc1ccccc1Cl | 0.4 | 0.7 | -6.2 | 1.1 | . | -3.5% | .
CC1(C)c2[nH]c3ccccc3c2C[C@H]2C(=O)N(Cc3cccc(F)c3)C(=O)N21 | -3.5 | . | 2.9 | . | -8.2 | . | i
CCOC(=O)Nc1ccc(S(=O)(=O)N(C)C(C)C)cc1 | -0.6 | 0.712 | 0.1 | 4.0 | . | 1.6% | .
O=C(CSC1=NS(=O)(=O)c2ccccc2N1)NCc1ccc(F)cc1 | 8.4 | 0.715 | 4.4 | 2.7 | -7.7 | -0.8% | i
COc1ccc(Br)cc1C(=O)NC(=S)Nc1ccc(Cl)c(C(=O)O)c1 | -2.1 | 0.693 | -1.4 | 3.2 | -2.8 | . | i
CC1CCN(Cc2c(C(=O)O)nnn2-c2nonc2N)CC1 | -2.6 | 0.654 | -1.3 | 3.7 | -1.1 | 10.5% | i
CCOC(=O)C(NC(=O)CC)(Nc1nc2c(s1)CCCC2)C(F)(F)F (stereo not drawn) | 0.4 | 0.736 | 1.1 | 6.2 | . | 0.6% | .
COc1ccc(CCn2c(N3CCOCC3)nc3c2c(=O)[nH]c(=O)n3C)cc1 | -1.5 | 0.683 | -1.3 | 2.7 | . | 0.4% | .
CC(=O)Nc1ccc(NS(=O)(=O)c2cn(C)c(=O)n(C)c2=O)cc1 | 6.2 | 0.739 | 2.6 | -0.7 | -4.8 | 1.7% | i
COc1ccc(S(=O)(=O)N2CCOCC2)cc1C(=O)N(C)CCOc1ccc(Cl)cc1 | 0.9 | 0.666 | . | 1.2 | 0.2 | -2.2% | i
COc1ccc(NC(=O)CSc2nnnn2Cc2ccccc2)cc1 | 3.6 | 0.697 | 1.2 | 3.9 | -1.6 | -2.0% | i
O=C(COc1nsnc1N1CCOCC1)Nc1ccc([N+](=O)[O-])cc1 | 1.1 | 0.688 | 2.0 | 5.4 | 1.6 | . | i
CCC(=O)N1CCC1(C)C(=O)Nc1cccc2cccnc12 (stereo not drawn) | 2.6 | . | . | . | -3.6 | . | i
